GLA inh pH 4.5: alpha-galactosidase A (human) inhibition, pH 4.5; P06280; 230,000 tested, under 10 active; purified enzyme, 4-MU-alpha-Gal fluorescence, pH 4.5; activity change, negative = inhibition, % at 105 µM; inconclusive = small, poorly fitted or top-dose-only inhibition, or a rising curve; inactive = flat fitted curve, though single readings scatter; no compound was filed as active;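 note: 0% = full activity with enzyme and -100% = basal without enzyme; dose as in the result columns while the protocol names 77 µM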
miR-21 reporter: miR-21 reporter, rising signal. Potency, µM (series often up to 38.3 µM), without a hit: top-dose reporter change, positive = more light. 340,000 tested, under 10 active. HeLa miR-21 FLuc reporter, luciferase, 48 h; active = well fitted rising curve with a large enough effect; inconclusive = small, poorly fitted or top-dose-only effect; inactive = no such curve, though single readings can be large or run the other way;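 note: % of control where 0% means no effect; miR-21 action dims this reporter so a rising signal means less miR-21 action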
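Compounds were titrated across several concentrations (up to approximately 40 uM) and incubated 48 hours with HeLa miR-21-FLuc reporter cells (miR-21 target sequence downstream of FLuc, endogenous miR-21). Readout was firefly luciferase luminescence after lytic detection reagent.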
Rango release inh: prevents RanGTP from dissociating the Rango-importin beta complex | Biochemical FRET Rango-importin beta, RanGTP-induced dissociation | Potency, µM (titrated, usually from 46.1 µM), for the others: at the top dose activity change, negative = inhibition | 340,000 compounds, 0.071% hits | AID 540253; active means falling FRET ratio curve, often poorly fitted, with flat reads before Ran was added; inconclusive means other falling curves, or compound fluorescence or quenching; inactive means flat or rising ratio curve;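 note: potency is the fitted concentration of half-maximal effect; % of control where 0% means no effect; nearly all actives have a fitted effect of over 45% in size; -100% = wells without RanGTP and RCC1; the record marks most hits as doubtful in a second field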
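Compounds preincubate 5 min with complex of recombinant Rango and importin beta in PBS with 1 mM DTT. Ran (0.6 uM) loaded with 2 mM GTP plus 0.2 uM RCC1 starts dissociation; FRET is recorded 45 min later.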
Rango complex inh: prevents formation of the Rango-importin beta complex; Rango CFP/YFP FRET sensor + importin beta, 45 min; Q14974; 340,000 compounds, 0.031% hits; Potency, µM (highest dose often 92.2 µM), without a hit: top-dose inhibition of complex formation; AID 540263; active = rising FRET ratio curve, often small or poorly fitted; inconclusive = mostly compound fluorescence or quenching in the first reads; inactive = flat curves in all reads;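 note: potency is the fitted concentration of half-maximal effect; 0% = DMSO wells and 100% = buffer wells lacking importin beta; nearly all actives have a fitted effect of over 15% in size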
Target sequence (Q14974 whole entry, looked up): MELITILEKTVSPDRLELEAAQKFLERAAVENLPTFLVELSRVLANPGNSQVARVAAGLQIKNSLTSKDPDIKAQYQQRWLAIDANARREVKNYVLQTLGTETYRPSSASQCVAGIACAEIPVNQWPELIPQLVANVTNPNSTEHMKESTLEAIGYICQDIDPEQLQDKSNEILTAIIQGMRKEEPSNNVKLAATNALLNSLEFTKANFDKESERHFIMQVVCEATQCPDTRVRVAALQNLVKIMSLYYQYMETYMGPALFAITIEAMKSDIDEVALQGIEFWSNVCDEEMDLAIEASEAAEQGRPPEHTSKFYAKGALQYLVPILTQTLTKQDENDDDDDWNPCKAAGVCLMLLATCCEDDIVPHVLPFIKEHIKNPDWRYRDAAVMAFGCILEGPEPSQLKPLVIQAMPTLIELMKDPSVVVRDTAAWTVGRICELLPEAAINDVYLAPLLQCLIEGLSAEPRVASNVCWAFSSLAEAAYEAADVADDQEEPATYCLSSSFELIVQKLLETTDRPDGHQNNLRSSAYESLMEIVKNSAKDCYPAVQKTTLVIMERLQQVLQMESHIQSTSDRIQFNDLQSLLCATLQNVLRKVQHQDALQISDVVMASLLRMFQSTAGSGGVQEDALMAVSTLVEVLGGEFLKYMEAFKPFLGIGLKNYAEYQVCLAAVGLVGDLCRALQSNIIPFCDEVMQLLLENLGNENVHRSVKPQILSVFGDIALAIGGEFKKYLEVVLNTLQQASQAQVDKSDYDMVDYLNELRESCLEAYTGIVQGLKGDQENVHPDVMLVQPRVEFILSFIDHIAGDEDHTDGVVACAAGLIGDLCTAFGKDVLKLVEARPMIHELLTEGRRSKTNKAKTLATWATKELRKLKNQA
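Inhibition scored from the CFP 486 nm/YFP 530 nm FRET ratio 45 min after adding 0.125 microM importin beta to 50 nM Rango biosensor preincubated 5 min with compound (room temperature, PBS with DTT, Tween-20, BSA). No-importin wells as positive control.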
* marks the source's active call; other numbers are inactive results; ? = inconclusive; . = not tested or not shown. A portion of the library, so the mix of outcomes need not match the whole.

1) CN(C)C(CNC(=O)c1ccc2[nH]c(=O)c(=O)[nH]c2c1)c1ccco1 (stereo not drawn)
2) Cc1nc(N2CCN(c3ccccc3O)CC2)c2c(-c3ccccc3)csc2n1
3) O=C(Cc1c(O)c2ccccc2oc1=O)c1ccc(C(F)(F)F)cc1
4) O=C(CCC(=O)Nc1ccc(F)cc1)N/N=C/c1cccnc1
5) CC(C)CCNC(=O)NC(=O)CSc1ncccn1
6) CC1CCN(S(=O)(=O)c2ccc3c(c2)N(CC(=O)NCCCOC(C)C)C(=O)CS3)CC1
7) CCc1cc2cc(C(=O)Nc3ccc(F)cc3)sc2s1
8) Cc1cc(C)nc(NS(=O)(=O)c2ccc(NC(=O)C3(c4ccc([N+](=O)[O-])cc4)CCCC3)cc2)n1
screen / no.	1	2	3	4	5	6	7	8
GLA inh pH 4.5	.	.	.	.	-1	.	3	5
miR-21 reporter	.	?	-2%	0%	1%	0%	-66%	-1%
Rango release inh	13%	-19%	-5%	17%	9%	0%	5%	-4%
Rango complex inh	0.3%	-1.0%	1.2%	0.2%	-0.7%	0.1%	-2.5%	-0.3%

Limited to Rango complex inh, GLA inh pH 4.5 and miR-21 reporter, for some of the entries so far:
item | SMILES | Rango complex inh | GLA inh pH 4.5 | miR-21 reporter
4 | O=C(CCC(=O)Nc1ccc(F)cc1)N/N=C/c1cccnc1 | 0.2% | . | 0%
5 | CC(C)CCNC(=O)NC(=O)CSc1ncccn1 | -0.7% | -1 | 1%
6 | CC1CCN(S(=O)(=O)c2ccc3c(c2)N(CC(=O)NCCCOC(C)C)C(=O)CS3)CC1 | 0.1% | . | 0%
7 | CCc1cc2cc(C(=O)Nc3ccc(F)cc3)sc2s1 | -2.5% | 3 | -66%
8 | Cc1cc(C)nc(NS(=O)(=O)c2ccc(NC(=O)C3(c4ccc([N+](=O)[O-])cc4)CCCC3)cc2)n1 | -0.3% | 5 | -1%

Additional records follow.
9) O=C(Cc1csc(N2CCOCC2)n1)N/N=C/c1ccc(O)c(O)c1O
10) CCCCN(C(=O)c1ccc([N+](=O)[O-])s1)c1c(N)n(CC(C)C)c(=O)[nH]c1=O
11) CC(C)CC(=O)Nc1cccc(-c2cn3ccsc3n2)c1
12) CC(C)NC(=O)N1CC(c2ccccc2)C(c2ccc(Cl)cc2)=N1 (stereo not drawn)
13) CCCc1cc(=O)[nH]c2nnc(SCC(=O)NCc3ccc4c(c3)OCO4)n12
14) Cc1ccc(Cn2c(=O)c3ccccc3n3c(SCC(=O)N4CCCCC4C)nnc23)cc1 (stereo not drawn)
15) O=C(NNS(=O)(=O)c1ccccc1[N+](=O)[O-])c1ccc(F)cc1
16) CCOc1cc(NC(=S)NCc2ccco2)c(OCC)cc1NC(=O)CC(C)C
screen / no.	9	10	11	12	13	14	15	16
GLA inh pH 4.5	-5	.	-1	.	.	3	-3	5
miR-21 reporter	-6%	.	-48%	5%	.	1%	-1%	-1%
Rango release inh	-15%	-5%	7%	12%	-7%	2%	23%	4%
Rango complex inh	-5.1%	1.7%	-4.0%	0.2%	0.1%	1.5%	-1.2%	-4.4%

17) COc1cc2c(cc1NC(=O)C1CCCO1)oc1ccccc12 (stereo not drawn)
18) NC(=O)c1ccc(Oc2ccc(C(N)=O)cc2)cc1
19) N#Cc1c(C(F)(F)F)cc(-c2ccc(F)cc2)[nH]c1=O
20) Cc1ccc(-n2c(-c3cc(-c4ccco4)[nH]n3)n[nH]c2=S)c(Br)c1
21) CC1(c2nnc(-c3ccc(F)cc3)o2)CC(c2c(Cl)cccc2Cl)=NO1 (stereo not drawn)
22) CC(C)C(C(=O)Nc1nccs1)c1ccc(Cl)cc1 (stereo not drawn)
23) O=C(O)c1ccc(Cl)c(S(=O)(=O)NC(Cc2c[nH]c3ccccc23)C(=O)O)c1 (stereo not drawn)
24) CS(=O)(=O)N1CCC(C(=O)Nc2ccc(F)c(Cl)c2)CC1
screen / no.	17	18	19	20	21	22	23	24
GLA inh pH 4.5	-12	-11	?	0	3	-11	.	.
miR-21 reporter	-52%	-1%	-2%	-12%	2%	20%	1%	-1%
Rango release inh	-12%	-12%	12%	26%	26%	-7%	-6%	8%
Rango complex inh	4.6%	-1.2%	-1.4%	-1.8%	-2.4%	-2.2%	-1.7%	2.7%

Next section:
Fields – GLA inh pH 4.5 | miR-21 reporter | Rango release inh | Rango complex inh
25: Cc1ccccc1N1CCN(C2CCCN(C(=O)c3cn4c(C)cccc4n3)C2)CC1 (stereo not drawn)
 : . | 25% | 16% | -0.4%
26: O=C(COC(=O)c1c(Cl)cccc1Cl)NC1CCCCCCC1
 : . | . | -4% | ?
27: Cc1ccc(C(=O)NCCC(=O)N2CCC3(CC2)NCCc2[nH]cnc23)cc1
 : . | -3% | -9% | -0.4%
28: O=C1CS(=O)(=O)N(Cc2ccc(F)cc2)c2ccccc21
 : . | . | -12% | -0.9%
29: CNC(=S)N1CCN(c2ccc(Cl)c(Cl)c2)CC1
 : -9 | 7% | -16% | -3.4%
30: COc1ccc(C(CNC(=O)CCOc2ccccc2)N(C)C)cc1 (stereo not drawn)
 : 2 | -5% | -1% | 0.5%
31: O=C(CNc1ccccc1F)N/N=C/C1CC=CCC1 (stereo not drawn)
 : 7 | 5% | -12% | 0.1%
32: CCC(=O)N1c2ccc(S(=O)(=O)NCc3ccccc3)cc2CC1C (stereo not drawn)
 : . | -11% | 6% | 0.6%
33: CCCCCCSc1ccc([C@@H]2[C@H]3C(=O)N(CC)C(=O)[C@H]3[C@]3(C(=O)OC)CCCCN23)cc1
 : . | . | 2% | -0.1%
34: Cc1ccc(NC(=O)c2cc(S(=O)(=O)c3ccccc3)ccc2Cl)cc1
 : -4 | 19% | 1% | -2.0%
35: Cc1c(Cl)cccc1NC(=S)NCc1cccs1
 : 3 | 4% | -5% | -0.8%
36: CC(=O)Nc1nc(-c2ccc3c(c2)CCO3)cs1
 : 3 | -32% | -14% | -0.2%
37: S=C1NCCOCCOCCOCCNC(=S)NCCOCCOCCOCCN1
 : 0 | -8% | 0% | 1.9%
38: CCN(CC)CCP(=O)(c1ccccc1)c1ccccc1
 : 5 | 0% | 15% | -2.5%
39: O=C(NCc1cn2ccsc2n1)c1c(F)cccc1Cl
 : 0 | -3% | 10% | 1.4%
40: O=C(O)c1ccc(NC(=S)NC(=O)c2ccc(-c3ccccc3)cc2)cc1
 : -2 | -41% | -6% | -0.6%
41: COc1ccc(-c2cc(C(=O)NCc3ccco3)c3ccccc3n2)c(OC)c1
 : . | 0% | -20% | -1.5%
42: COc1ccc(C2CC(c3ccc(Br)cc3)Nc3nc(N)nn32)cc1 (stereo not drawn)
 : 10 | -1% | -10% | 4.9%
43: COC(=O)c1ccc(CSc2nnnn2Cc2ccccc2)cc1
 : -9 | -13% | -3% | 0.8%
44: COc1cc(C(C(=O)NC(C)(C)C)N(C(=O)CNC(=O)c2cccs2)c2cccnc2)cc(OC)c1OC (stereo not drawn)
 : . | -1% | 7% | 2.8%
45: O=C1CC(c2ccccc2)Cc2nc(N3CCc4ccccc4C3)ncc21 (stereo not drawn)
 : 0 | -7% | 0% | 1.0%
46: O=C(/C=C/c1ccc(F)cc1)NCCc1ccc2c(c1)OCCO2
 : -21 | -11% | -21% | -3.2%
47: O=C(NC(=S)Nc1ccc2[nH]c(=O)[nH]c2c1)c1cncc(Br)c1
 : 7 | -1% | 3% | -2.6%
48: COC(=O)c1ccc(C(=O)OC)c(NC(=O)CCS(=O)(=O)Cc2ccccc2)c1
 : . | 5% | 0% | 2.0%
49: CN(CCCC(=O)Nc1ccncc1)S(=O)(=O)c1ccc(Cl)cc1
 : 3 | 18% | -3% | 2.1%
50: COCCOC(=O)C1=C(C)NC(=O)NC1c1cc2c(cc1Br)OCO2 (stereo not drawn)
 : . | 3% | -1% | -3.2%
51: c1ccc(CCN(Cc2ccccc2)Cc2nc(C3CC3)no2)cc1
 : 0 | -10% | 0% | -0.1%
52: CCOc1ccc(C)cc1S(=O)(=O)NC1CCCCC1
 : -2 | -2% | -15% | 0.7%
53: O=C1N(Cc2cccnc2)C[C@@H]2C[C@@H](c3cccc(OCc4ccccc4)c3)N3CCC[C@@]123
 : 4 | -2% | -8% | -1.6%
54: O=S(=O)(NCc1nc2ccccc2[nH]1)c1ccccc1
 : . | -21% | 15% | 6.2%

Continued; it opens with the two that closed the last part.
Fields – GLA inh pH 4.5 | miR-21 reporter | Rango release inh | Rango complex inh
53: O=C1N(Cc2cccnc2)C[C@@H]2C[C@@H](c3cccc(OCc4ccccc4)c3)N3CCC[C@@]123
 : 4 | -2% | -8% | -1.6%
54: O=S(=O)(NCc1nc2ccccc2[nH]1)c1ccccc1
 : . | -21% | 15% | 6.2%
55: CCCCc1c(O)nc(SCC(=O)NCC2CCCO2)[nH]c1=O (stereo not drawn)
 : 5 | -4% | -10% | -4.7%
56: CC(=O)C1=C(O)C(=O)N(c2ccc(F)cc2)C1c1ccc(C)cc1 (stereo not drawn)
 : . | -12% | 12% | 0.4%
57: S=C(Nc1ccc(Br)cc1)N1CCN(c2ccccn2)CC1
 : . | 0% | 10% | 0.2%
58: CC1CCN(C(=O)C2CCN(c3nnc(-n4cccc4)s3)CC2)CC1
 : . | 0% | 11% | -0.2%
59: COc1cccc(NC(=O)CN(C)C(=O)c2c(C)noc2C)c1
 : . | . | 9% | -2.7%
60: COc1cccc(NC(=O)N2CCN(c3ccc(C(F)(F)F)cn3)CC2)c1
 : 3 | 2% | -4% | -1.5%
61: CC(=O)c1c(C)[nH]c(C(=O)COC(=O)CNS(=O)(=O)c2ccccc2)c1C
 : -5 | -4% | 13% | -2.5%
62: Cc1ccc(/C(O)=C2\C(=O)C(=O)N(C)C2c2ccc(F)cc2)cc1 (stereo not drawn)
 : . | 5% | 35% | 0.0%
63: Nc1nnc(CC(=O)N/N=C/c2cc([N+](=O)[O-])cc(Br)c2O)s1
 : 2 | 1% | -11% | ?
64: CCCCN(C(=O)c1cccc(N2C(=O)c3ccccc3C2=O)c1)c1c(N)n(CC(C)C)c(=O)[nH]c1=O
 : . | . | -5% | -0.9%
65: O=C(NCCCN1CCOCC1)c1ccc2nc(Cc3ccccc3F)oc2c1
 : . | -25% | -6% | 1.9%
66: Cc1ccc(C(=O)NC(=O)CSc2nncn2C)cc1
 : . | -1% | 7% | -1.7%
67: CC(=O)c1c(C)[nH]c(C(=O)OCn2nnc3ccccc3c2=O)c1C
 : 8 | -10% | -2% | 4.9%
68: c1ccc(CN2CCC(Nc3ncnc4sccc34)CC2)cc1
 : 6 | 23% | -6% | -0.2%
69: C=CCn1c(SCC(=O)NCCCC)nc2scc(-c3ccco3)c2c1=O
 : 1 | -6% | -13% | ?
70: COC(=O)c1cc(-c2ccc(S(=O)(=O)N3CCCC3)cc2)c(C(F)(F)F)s1
 : -12 | 3% | -12% | -3.8%

Values in list order from the list:
miR-21 reporter, entries 15 to 20, in order: -1%, -1%, -52%, -1%, -2%, -12%
GLA inh pH 4.5, entries 15 to 20, in order: -3, 5, -12, -11, ?, 0

Entries of single compounds as entered above:
CC(=O)c1c(C)[nH]c(C(=O)OCn2nnc3ccccc3c2=O)c1C as listed: GLA inh pH 4.5: 8; miR-21 reporter: -10%; Rango release inh: -2%; Rango complex inh: 4.9%
Nc1nnc(CC(=O)N/N=C/c2cc([N+](=O)[O-])cc(Br)c2O)s1 as listed: GLA inh pH 4.5: 2; miR-21 reporter: 1%; Rango release inh: -11%; Rango complex inh: ?
c1ccc(CN2CCC(Nc3ncnc4sccc34)CC2)cc1 as listed: GLA inh pH 4.5: 6; miR-21 reporter: 23%; Rango release inh: -6%; Rango complex inh: -0.2%

Assay outcomes as filed in PubChem.
